Yeast UUG start: yeast start codon fidelity modulation; S. cerevisiae UUG-firefly luciferase reporter, luminescence/redox ratio; activity score, % at 18.7 µM; 350,000 compounds, 0.13% hits; AID 602363;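 active means replicate mean at a twofold rise or more, about +100% in these data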;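 further: firefly luciferase made from a UUG start codon reports start codon fidelity; reporter light over untreated wells divided by growth signal over untreated wells; some hits fall short of that in this replicate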
The depositor's hits bear a star. These rows are one share of the data, so the mix of outcomes need not match the whole.

SMILES | Yeast UUG start
C[C@@H]1CN([C@@H](C)CO)C(=O)c2cc(NC(=O)CCN3CCOCC3)ccc2O[C@H]1CN(C)Cc1ccc(Oc2ccccc2)cc1 | 10
C[C@@H]1CN([C@H](C)CO)C(=O)c2cc(NC(=O)Nc3ccc(C(F)(F)F)cc3)ccc2O[C@@H]1CN(C)C | 8
O=C(C[C@H]1CC[C@@H]2[C@H](COC[C@@H](O)CN2S(=O)(=O)c2ccc(Cl)cc2)O1)NCc1ccc(Cl)c(Cl)c1 | 7
CCCNC(=O)C[C@@H]1C[C@H]2c3cc(NS(=O)(=O)c4cccc(OC)c4)ccc3O[C@H]2[C@@H](CO)O1 | -7
C[C@H](CO)N1C[C@H](C)[C@@H](CN(C)S(=O)(=O)c2ccc(F)cc2)Oc2ccc(NC(=O)CCCN(C)C)cc2C1=O | -1
COc1ccc(CN(C)C[C@H]2Oc3ccc(NC(=O)Nc4ccc(OC)cc4)cc3CC(=O)N([C@H](C)CO)C[C@H]2C)cc1 | 21
Cc1cccc(S(=O)(=O)N2CC[C@@H]3[C@H]2c2cc(-c4ccccc4F)ccc2N[C@@H]3CO)c1 | -1
CC(=O)N1[C@@H](CO)[C@@H](c2ccccc2)[C@@H]1CN(C)C(=O)c1ccccc1F | -7
COCC#Cc1ccc([C@@H]2[C@H]3CN(S(=O)(=O)c4ccc(OC)cc4)CCCCN3[C@H]2CO)cc1 | -12
COc1ccc(C#Cc2ccc3c(c2)[C@H]2[C@H](CCN2C(=O)C2CCOCC2)[C@H](CO)N3)cc1 | -8
CO[C@@H]1CN(C)C(=O)c2ccc(NC(=O)c3ccccc3F)cc2OC[C@@H](C)N(CC2CCOCC2)C[C@H]1C | 3
CCCC(=O)Nc1ccc2c(c1)OC[C@H](C)N(Cc1ccccc1F)C[C@H](C)[C@H](OC)CN(C)C2=O | 13
O=C(Nc1ccccc1F)N1C[C@@H]2[C@H](c3ccccc31)[C@H](CO)N2C(=O)C1CCOCC1 | 12
O=C(Nc1ccccc1)N1CCCCN2[C@H](C1)[C@@H](c1ccc(-c3ccccc3)cc1)[C@@H]2CO | 3
COc1ccc(NC(=O)Nc2ccc3c(c2)C(=O)N([C@@H](C)CO)C[C@H](C)[C@H](CN(C)C(=O)Nc2c(C)noc2C)O3)cc1 | -24
CCC(=O)N1[C@H](CO)[C@H]2c3ccccc3N(C(=O)c3ccc4c(c3)OCO4)C[C@H]21 | 6
CC=Cc1ccc2n(c1=O)C[C@H]1[C@H](CO)[C@@H](C(=O)NCC(F)(F)F)[C@@H]2N1C(=O)C1CC1 (mixture of isomers) | 42
CO[C@H]1CN(C)C(=O)c2cc(NS(C)(=O)=O)ccc2OC[C@@H](C)N(C(=O)c2ccc3c(c2)OCO3)C[C@H]1C | -7
O=C(C[C@H]1CC[C@@H]2[C@H](COC[C@@H](O)CN2S(=O)(=O)c2ccccc2F)O1)NCc1ccccc1Cl | 26
Cc1ccccc1S(=O)(=O)N1CC[C@@H]2[C@@H](CO)Nc3ccc(-c4ccc(C#N)cc4)cc3[C@@H]21 | -36
CC(=O)N1CCCCN2[C@H](CO)[C@@H](c3ccc(-c4ccc(C)cc4)cc3)[C@@H]2C1 | -5
COc1ccccc1CN1CC[C@@H]2[C@H](CO)Nc3ccc(C#Cc4ccccc4)cc3[C@@H]21 | 9
O=C(NC[C@@H]1N[C@@H](CO)[C@H]1c1ccccc1)C1CCC1 | -12
COc1ccc(S(=O)(=O)N(C)C[C@H]2Oc3c(NS(=O)(=O)c4ccc(C)cc4)cccc3C(=O)N([C@@H](C)CO)C[C@@H]2C)cc1 | 5
O=C(NCC1CCCCC1)[C@H]1[C@H](CO)[C@H]2Cn3c(ccc(C4=CCCCC4)c3=O)[C@@H]1N2 | 14
C[C@H]1CN([C@@H](C)CO)C(=O)c2cc(NS(=O)(=O)c3cccs3)ccc2O[C@@H]1CN(C)C(=O)Nc1cccc2ccccc12 | 8
CO[C@@H]1CN(C)C(=O)c2ccc(NC(=O)C3CC3)cc2OC[C@@H](C)N(Cc2ccccc2)C[C@H]1C | 28
CN(C)CC(=O)N1[C@@H]2Cn3c(ccc(C4=CCCC4)c3=O)[C@H]1[C@@H](C(=O)NCC1CCCCC1)[C@@H]2CO | 21
C[C@@H]1CN([C@H](C)CO)C(=O)c2cc(NC(=O)Nc3ccc(F)cc3)ccc2O[C@@H]1CN(C)C(=O)Nc1cccc2ccccc12 | -18
CC(C)NC(=O)N1CC[C@@H]2[C@H]1c1cc(-c3ccc(F)cc3)ccc1N(C)[C@@H]2CO | -2
C[C@@H]1CN([C@H](C)CO)C(=O)c2c(c3ccccc3n2C)-c2ccccc2CO[C@@H]1CN(C)CC1CC1 | 1
C[C@H]1CN([C@@H](C)CO)C(=O)c2cccc(NC(=O)c3cnccn3)c2O[C@H]1CN(C)Cc1ccncc1 | -1
Cc1ccc(-c2ccc([C@H]3[C@@H](CO)N4CCCCN(Cc5cncnc5)C[C@H]34)cc2)cc1 | -3
CO[C@@H]1CN(C)C(=O)c2cc(NC(=O)C3CC3)ccc2OC[C@H](C)N(C)C[C@@H]1C | -7
CCCNC(=O)N1C[C@H]2[C@@H](c3ccccc31)[C@@H](CO)N2C(=O)c1ccncc1 | 3
CCCNC(=O)[C@@H]1[C@@H](CO)[C@@H]2Cn3c(cccc3=O)[C@@H]2N1CC1CCCCC1 | 16

Continued, starting with the last 3 of the part before.
SMILES | Yeast UUG start
CO[C@@H]1CN(C)C(=O)c2cc(NC(=O)C3CC3)ccc2OC[C@H](C)N(C)C[C@@H]1C | -7
CCCNC(=O)N1C[C@H]2[C@@H](c3ccccc31)[C@@H](CO)N2C(=O)c1ccncc1 | 3
CCCNC(=O)[C@@H]1[C@@H](CO)[C@@H]2Cn3c(cccc3=O)[C@@H]2N1CC1CCCCC1 | 16
C[C@H]1CN([C@@H](C)CO)C(=O)CCCn2nncc2CO[C@H]1CN(C)S(=O)(=O)c1cn(C)cn1 | -17
CN1c2ccc(-c3ccc(F)cc3)cc2[C@@H]2[C@@H](CCN2S(=O)(=O)c2ccc(F)cc2)[C@H]1CO | -19
CCC(=O)N1[C@@H]2CN(C(=O)c3ccncc3)c3ccccc3[C@@H]2[C@@H]1CO | -4
CCNC(=O)C[C@@H]1CC[C@H]2[C@@H](COC[C@@H](O)CN2C(=O)Nc2ccc3c(c2)OCO3)O1 | 5
CO[C@@H]1CN(C)C(=O)c2cc(NS(C)(=O)=O)ccc2OC[C@H](C)N(C(=O)C2CCCC2)C[C@@H]1C | -5
CCN1[C@@H]2c3ccc(-c4ccccc4)c(=O)n3C[C@@H]2[C@@H](CO)[C@@H]1C(=O)NCc1ccccc1 | 4
C[C@@H]1CN([C@@H](C)CO)C(=O)Cc2cc(NC(=O)c3ccncc3)ccc2O[C@H]1CN(C)C(=O)Nc1ccc(F)cc1 | -8
C[C@H]1CN([C@@H](C)CO)C(=O)c2cccc(NC(=O)C3CC3)c2O[C@H]1CN(C)Cc1ccccc1 | -7
C[C@@H]1CN([C@H](C)CO)C(=O)Cc2cc(NC(=O)Nc3cccc4ccccc34)ccc2O[C@H]1CN(C)C(=O)Nc1ccccc1 | -1
CN(C)C(=O)C[C@@H]1CC[C@H]2[C@@H](COC[C@H](O)CN2CC2CCOCC2)O1 | -14
CN1c2ccc(Br)cc2[C@H]2[C@H](CCN2C(=O)C2CCOCC2)[C@@H]1CO | 15
COc1ccc(NC(=O)Nc2ccc3c(c2)CC(=O)N([C@H](C)CO)C[C@@H](C)[C@@H](CN(C)C(=O)Nc2ccc(F)cc2)O3)cc1 | 15
COCC(=O)NC[C@@H]1[C@H](c2ccc(-c3ccccc3)cc2)[C@@H](CO)N1C(C)=O | 34
CC(C)NC(=O)Nc1ccc2c(c1)C(=O)N([C@H](C)CO)C[C@H](C)[C@@H](CN(C)Cc1ccc3c(c1)OCO3)O2 | -9
CNC[C@H]1Oc2ccc(NC(=O)Nc3ccc(F)cc3)cc2CC(=O)N([C@H](C)CO)C[C@@H]1C | 8
C[C@H](CO)N1C[C@H](C)[C@H](CN(C)Cc2ccc(C(F)(F)F)cc2)Oc2ccc(NC(=O)NC3CCCCC3)cc2C1=O | 0
C[C@H]1CN([C@@H](C)CO)C(=O)c2cc(NC(=O)c3ccncc3)ccc2O[C@@H]1CN(C)S(=O)(=O)c1cn(C)cn1 | -6
Cc1ccccc1S(=O)(=O)N1CC[C@@H]2[C@@H](CO)Nc3ccc(-c4ccccc4F)cc3[C@@H]21 | -26
CCCC(=O)Nc1ccc2c(c1)C(=O)N(C)[C@H]1CC[C@H](CC(=O)NCCc3ccccc3)O[C@@H]1CO2 | 17
COc1ccc(NC(=O)Nc2cccc3c2O[C@@H](CN(C)Cc2ccncc2)[C@H](C)CN([C@H](C)CO)C3=O)cc1 | -6
C/C=C/c1ccc([C@@H]2[C@@H](CNC(=O)CC3CC3)N(C(C)=O)[C@H]2CO)cc1 | -9
Cc1noc(C)c1NC(=O)Nc1ccc2c(c1)C(=O)N([C@H](C)CO)C[C@@H](C)[C@@H](CN(C)S(C)(=O)=O)O2 | 5
CN1c2ccc(Br)cc2[C@H]2[C@H](CCN2C(=O)Cc2cccnc2)[C@H]1CO | -9
CO[C@H]1CN(C)C(=O)c2cc(NC(=O)C3CCCC3)ccc2OC[C@@H](C)N(CCC(F)(F)F)C[C@@H]1C | 12

Ordered by value in Yeast UUG start (largest number first): four from the list above
SMILES | Yeast UUG start
COCC(=O)NC[C@@H]1[C@H](c2ccc(-c3ccccc3)cc2)[C@@H](CO)N1C(C)=O | 34
Cc1noc(C)c1NC(=O)Nc1ccc2c(c1)C(=O)N([C@H](C)CO)C[C@@H](C)[C@@H](CN(C)S(C)(=O)=O)O2 | 5
CN1c2ccc(Br)cc2[C@H]2[C@H](CCN2C(=O)Cc2cccnc2)[C@H]1CO | -9
Cc1ccccc1S(=O)(=O)N1CC[C@@H]2[C@@H](CO)Nc3ccc(-c4ccccc4F)cc3[C@@H]21 | -26

More entries.
CCCN1[C@@H]2c3ccc(C4=CCCCC4)c(=O)n3C[C@H]1[C@H](CO)[C@H]2C(=O)NCC
  Yeast UUG start: 7
CC(=O)N1CCCCN2[C@@H](CO)[C@@H](c3ccc(C#Cc4ccccc4F)cc3)[C@@H]2C1
  Yeast UUG start: 6
C[C@H]1CN([C@@H](C)CO)C(=O)c2cc(NC(=O)Cn3cnnn3)ccc2O[C@H]1CN(C)Cc1ccc(Oc2ccccc2)cc1
  Yeast UUG start: 2
OC[C@H]1[C@@H](c2ccc(/C=C/c3ccccc3)cc2)[C@@H]2CN(Cc3cncnc3)CCCCN12
  Yeast UUG start: 2
CO[C@@H]1CN(C)C(=O)c2ccc(NC(=O)C3CCC3)cc2OC[C@@H](C)N(Cc2ccc(F)cc2)C[C@H]1C
  Yeast UUG start: 9
N#Cc1cccc(-c2ccc([C@H]3[C@@H](CO)N4CCCCN(C(=O)Nc5cccc(F)c5)C[C@H]34)cc2)c1
  Yeast UUG start: 0
COc1ccc(S(=O)(=O)Nc2ccc3c(c2)CC(=O)N([C@@H](C)CO)C[C@@H](C)[C@@H](CN(C)Cc2ccncc2)O3)cc1
  Yeast UUG start: 1
O=C(CCCOc1ccccc1)Nc1cccc(S(=O)(=O)N2CCCCCC2)c1
  Yeast UUG start: 5
C[C@@H]1CN([C@@H](C)CO)C(=O)c2cccc(NS(=O)(=O)c3ccccc3)c2O[C@H]1CN(C)Cc1ccc(C(F)(F)F)cc1
  Yeast UUG start: 1
C[C@H](CO)N1C[C@H](C)[C@H](CN(C)S(=O)(=O)c2ccc(-c3ccccc3)cc2)OCc2cn(nn2)CCCC1=O
  Yeast UUG start: -2

Cc1noc(C)c1NC(=O)Nc1ccc2c(c1)C(=O)N([C@H](C)CO)C[C@@H](C)[C@H](CN(C)S(=O)(=O)c1cn(C)cn1)O2
  Yeast UUG start: -17
O=C(C[C@@H]1CC[C@H]2[C@@H](COC[C@@H](O)CN2C(=O)c2ccccc2F)O1)N1CCN(c2ccccc2)CC1
  Yeast UUG start: 4
CCCC#Cc1ccc([C@H]2[C@@H](CO)N3CCCCN(CC4CCOCC4)C[C@H]23)cc1
  Yeast UUG start: 14
O=S(=O)(Cc1ccccc1)N1CCCCN2[C@@H](CO)[C@@H](c3ccc(C#Cc4ccccc4)cc3)[C@@H]2C1
  Yeast UUG start: -3
Cc1ccccc1-c1ccc([C@@H]2[C@H](CO)N3CCCCN(C(=O)CN4CCOCC4)C[C@@H]23)cc1
  Yeast UUG start: 27
O=C(C[C@H]1CC[C@H]2[C@@H](COC[C@@H](O)CN2S(=O)(=O)c2ccccc2)O1)Nc1ccc(-c2ccccc2)cc1
  Yeast UUG start: -7
O=C(Nc1cccc(F)c1)N1CCCCN2[C@H](CO)[C@H](c3ccc(-c4ccccc4F)cc3)[C@@H]2C1
  Yeast UUG start: -5
C[C@H]1CN([C@@H](C)CO)C(=O)Cc2cc(NC(=O)c3ccncc3)ccc2O[C@H]1CN(C)C(=O)Nc1ccc(F)cc1
  Yeast UUG start: -8
CCCNC(=O)N1C[C@@H]2[C@H](c3ccccc31)[C@@H](CO)N2CC1CCCCC1
  Yeast UUG start: -3
CCCN1C[C@H](C)[C@H](OC)CN(C)C(=O)c2ccc(NC(=O)c3ccccc3)cc2OC[C@H]1C
  Yeast UUG start: -2

Cc1cccc(S(=O)(=O)N2CC[C@@H]3[C@H]2c2cc(C4=CCCCC4)ccc2N[C@@H]3CO)c1
  Yeast UUG start: -12
COc1cccc(NC(=O)N2C[C@H](O)COC[C@@H]3O[C@@H](CC(=O)NC4CCCC4)CC[C@H]32)c1
  Yeast UUG start: -2
COCC(=O)N(C)C[C@@H]1[C@@H](c2ccccc2)[C@H](CO)N1C(=O)NC(C)C
  Yeast UUG start: -3
C[C@@H]1CN([C@@H](C)CO)C(=O)c2cc(NC(=O)Cn3cnnn3)ccc2O[C@@H]1CN(C)Cc1ccncc1
  Yeast UUG start: -13
O=C(NCC1CC1)[C@H]1[C@H](CO)[C@H]2Cn3c(ccc(C4=CCCCC4)c3=O)[C@H]2N1Cc1ccccc1F
  Yeast UUG start: 7
C[C@@H]1CN([C@H](C)CO)C(=O)c2cccc(NS(=O)(=O)c3ccc(F)cc3)c2O[C@H]1CN(C)Cc1ccncc1
  Yeast UUG start: -13
C/C=C/c1ccc([C@H]2[C@@H](CO)N(c3nc(CC)cs3)[C@H]2CNC(C)C)cc1
  Yeast UUG start: -5

High-throughput results deposited in PubChem BioAssay by Broad Institute.
